Screening data deposited in PubChem by National Center for Advancing Translational Sciences (NCATS).
gsp antagonist = antagonizes gsp, the McCune-Albright syndrome mutation. 0.4% of 340,000 active. gsp-mutant cells, cAMP HTRF, 30 min; control for the full effect not named in the record. Potency, µM (series often up to 76.9 µM), inactives show at the highest dose activity change, negative = inhibition, actives largely listed as inhibitors; active = falling curve of any shape with a large fitted effect; inconclusive = falling curve, mostly with a smaller effect; inactive = flat or rising curve; cell line not stated here;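 further: intracellular cAMP measured with PDE inhibitor Ro 20-1724 present during compound exposure; potency means the concentration at half of the fitted maximal effect; on the % scale 0 is the no-effect control and ±100 the full control effect; nearly all actives have a fitted effect of over 65% in size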
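Cells, 2000/well, grown 16–24 h in DMEM 10% FBS with 0.5 mg/ml G418, then compounds plus […] (300 uM addition stock), 30 min at 37C. cAMP read by HTRF (cAMP-d2 and anti-cAMP antibody-K in lysis buffer) after 30 min RT.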
Sfp inh = Sfp phosphopantetheinyl transferase inhibition | 3.5% of 310,000 active | Potency, µM, for inactives: max response, negative = inhibition, actives largely listed as inhibitors | Q9F4F7 | AID 1490 | Biochemical Sfp PPTase activity, qHTS; active means well fitted inhibition curve with a large enough effect; inconclusive means small, poorly fitted or top-dose-only effect, or another doubt; inactive means no such curve, though single readings can be large or run the other way;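 further: the enzyme is Sfp with the accession as filed and its product quenches rhodamine fluorescence; potency means the concentration at half of the fitted maximal effect; 0% = enzyme reaction without inhibitor and -100% = no enzyme wells; top concentration of the series not given in the record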
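Sfp 15 nM + cpd, 15 min RT; start w/ rhodamine-CoA 5 uM, BHQ-2-YbbR 12.5 uM (final); 50 mM Hepes pH 7.6, 10 mM MgCl2, 0.01% NP-40, 0.01% BSA; read 525/598 nm at 0 and 30 min.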
TRPV1 PAM = enhances activation of the human vanilloid receptor TRPV1 | Q8NER1 | TRPV1-expressing cells, Fluo-8 calcium influx, capsaicin EC20 potentiation; host cell line not named in the record; control for the full effect not named in the record | potentiation, % at 8.33 µM | 0.02% of 320,000 active | AID 540277; active means potentiation above 80%; inconclusive means 30% to 80%; inactive means below 30%; further: 0% is about no effect
Target sequence (Q8NER1 whole entry, looked up): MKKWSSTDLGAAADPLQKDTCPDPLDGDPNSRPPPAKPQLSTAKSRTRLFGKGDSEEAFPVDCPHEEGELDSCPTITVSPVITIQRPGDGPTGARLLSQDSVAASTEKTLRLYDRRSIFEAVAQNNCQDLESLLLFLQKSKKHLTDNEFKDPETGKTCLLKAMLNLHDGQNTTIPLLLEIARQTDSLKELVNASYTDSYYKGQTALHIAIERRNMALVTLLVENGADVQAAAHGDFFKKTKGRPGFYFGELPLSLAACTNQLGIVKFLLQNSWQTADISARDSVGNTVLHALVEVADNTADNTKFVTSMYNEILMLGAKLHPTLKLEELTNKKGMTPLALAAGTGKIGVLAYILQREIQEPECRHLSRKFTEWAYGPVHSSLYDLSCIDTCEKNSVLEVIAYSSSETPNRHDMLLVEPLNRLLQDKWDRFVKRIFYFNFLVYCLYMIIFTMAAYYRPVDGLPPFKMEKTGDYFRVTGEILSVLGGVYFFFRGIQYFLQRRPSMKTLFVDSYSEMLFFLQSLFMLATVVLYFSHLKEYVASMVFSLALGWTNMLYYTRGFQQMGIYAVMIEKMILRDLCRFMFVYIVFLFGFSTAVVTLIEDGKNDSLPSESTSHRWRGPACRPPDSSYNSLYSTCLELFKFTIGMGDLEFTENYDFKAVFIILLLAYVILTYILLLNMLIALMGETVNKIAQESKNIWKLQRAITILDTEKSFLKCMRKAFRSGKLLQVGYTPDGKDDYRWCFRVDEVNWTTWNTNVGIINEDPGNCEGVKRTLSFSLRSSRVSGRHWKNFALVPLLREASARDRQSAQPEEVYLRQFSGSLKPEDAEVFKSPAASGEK
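Fluo-8 calcium influx in TRPV1-expressing cells, kinetic read (ex 480/em 520 nm). Compound added and read 3 min for agonist activity, followed by capsaicin at EC20 final and 2 min further read for enhancement.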
ClpP mod = qHTS Assay for Activators of ClpP; ATP-dependent Clp protease proteolytic subunit (Bacillus subtilis (strain 168)), P80244; purified B. subtilis ClpP, FRET peptide cleavage, 20 min; Potency, µM (titrated, usually from 57.5 µM), inactives show at the top dose activity change, negative = active; 1.9% of 340,000 active; AID 651965, 2013; active = well fitted falling curve with a large enough effect; inconclusive = small, poorly fitted or top-dose-only effect; inactive = no such curve, though single readings can be large or run the other way; further: potency means the concentration at half of the fitted maximal effect; the source files actives as falling curves though it sought activators and does not explain the sign; nearly all actives have a fitted effect of over 65% in size; many hits overshoot -100%
Target sequence (P80244 whole entry, looked up): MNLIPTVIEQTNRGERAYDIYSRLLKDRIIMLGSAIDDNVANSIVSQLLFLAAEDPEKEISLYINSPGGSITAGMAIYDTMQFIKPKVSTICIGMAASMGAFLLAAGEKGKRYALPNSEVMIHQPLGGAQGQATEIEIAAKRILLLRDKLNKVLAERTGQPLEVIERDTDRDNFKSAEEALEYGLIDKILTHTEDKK
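Buffer: 100 mM Tris/HCl pH8, 100 mM KCl, 0.05% low protease BSA, 2.5% glycerol, 0.01% Tween-20. ClpP 10 microg/mL final; 20 min RT; delta FRET normalized to ADEP and DMSO controls.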
Menin-MLL FL inh = menin-MLL binding inhibition, fluorescein peptide. Fluorescence polarization, fluorescein-MLL peptide displacement from menin. 290,000 tested, under 10 active. FP activity change, % at 61.4 µM; inconclusive = falling polarisation curve, or a change in total fluorescence; inactive = total fluorescence flat and polarisation flat or rising; no compound was filed as active; the % refers to the polarisation; negative = inhibition;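 further: % of control where 0% means no effect; inhibitors lower the polarisation; unlabelled MLL peptide was the positive control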
gsp agonist = agonists of gsp mutant (McCune-Albright syndrome). 0.13% of 340,000 active. AID 624287. gsp mutant cells, cAMP HTRF, 30 min; control for the full effect not named in the record. Potency, µM (series often up to 76.9 µM), for inactives: top-dose activation (cAMP increase), usual class: activators; active = well fitted activation curve with a large enough effect; inconclusive = small, poorly fitted or top-dose-only effect, or another doubt; inactive = no such curve, though single readings can be large or run the other way; cell line not stated here;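 further: phosphodiesterase inhibitor Ro 20-1724 added with compounds to block cAMP breakdown; potency means the concentration at half of the fitted maximal effect; nearly all actives have a fitted effect of over 60% in size; about a fifth of the inactives were tested at one dose only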
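Cells in DMEM/10% FBS with G418 were pretreated with compounds in DMSO plus […] (300 uM stock) for 30 min at 37C. cAMP was measured by HTRF (cAMP-d2 plus anti-cAMP antibody-K) after 30 min at room temperature.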
TRPML1 blocker = blocks the human TRPML1 channel; Q9GZU1; TRPML1-inducible cells, Ca2+ dye fluorescence, FDSS; hits give low values; inhibition of EC80 agonist-evoked calcium signal; activity change, negative = inhibition, % (no concentration beside the values); 0.02% of 390,000 active; AID 624415; in the data active means activity change below about -50%; inconclusive means about -30% to -50%; inactive means above about -30%;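 further: stimulus is agonist 54-4 at its EC80 concentration; on the % scale 0 is the no-effect control and ±100 the full control effect; compound concentration not given in the record; the text of the record puts the active cut at -80%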
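Tet-induced TRPML1-DL cells loaded with Ca8 no-wash calcium dye were read kinetically on FDSS. Compound addition was followed by EC80 agonist 54-4 (4 uM final); inhibition was read over 110 s.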
* marks the source's active call; other numbers are inactive results; u = inconclusive; x = no result given; & = joins results of further samples; [ ] = dose if it differs, or a comment.

SMILES	gsp antagonist	Sfp inh	TRPV1 PAM	ClpP mod	Menin-MLL FL inh	gsp agonist	TRPML1 blocker
O=C(CSc1nnc(NC(=O)c2ccccc2)s1)NC1CCCC1	-7%	7%	-1	x	-5.5	12%	4
CCn1c(=O)c(C(=O)Nc2ccccc2S(N)(=O)=O)c(O)c2ccccc21	-3%[15.4 µM]	12%	-15	-2.7%	-0.1	-1%	5
O=C(Cc1c(F)cccc1Cl)Nc1ccccc1N1CCCCC1	-24%	8%	-4	-3.6%	-5.3	6%	12
COc1cc(N(C(=O)Cc2cccs2)C(C(=O)NC2CCCCC2)c2ccc(C)cc2)ccc1-n1cnnn1 (centres undefined)	6%	27%	-7	-2.6%	-0.7	0%	-8
OC1CCN(c2c3c(nc4cc(-c5ccc(Cl)cc5)nn24)CCC3)CC1	u	-16%	21	14µM*	1.1	9%	2
CC(C)[C@@H](N)C(=O)N/N=C/c1ccc2ncccc2c1	-11%	u	-7	-12%	-0.1	13%[15.4 µM]	-16
CN(C)C(CNC(=O)CSc1nc2ccccc2c(=O)n1Cc1ccco1)c1ccccc1 (centres undefined)	14%	x	-19	0.2%	x	-36%[inhibitor]	-6
COc1ccc(C(=O)NCC2CCCN2S(=O)(=O)c2cccs2)cc1 (centres undefined)	2%	x	28	-2.6%	x	-4%[15.4 µM]	-5
COc1cccc(NC(=O)CN(C)CC(=O)Nc2ccc(C)c([N+](=O)[O-])c2)c1	-26%	-5%	11	x	3.1	23%	-21
CCCCC[C@H]1CN(Cc2ccc(OC)cc2)C(=O)[C@@H]1CC(=O)NCc1ccccc1	-13%	-10%	18	-2.2%&1.7%	4.6	-11%	-9
O=C(/C=C/c1cccc(Br)c1)NCC1CCCCC1	-15%	u	-24	-1.4%	7.4	3%	23
Cc1ccc(CN(C)C(=O)COC(=O)CSc2ccc([N+](=O)[O-])cc2)cc1	-13%	x	-4	1.6%	x	-6%	10
COCCN(C(=O)CNC(=O)c1ccco1)C(C(=O)NC1CCCC1)c1cccc(OC)c1 (centres undefined)	-4%	1%	23	x	-2.0	2%	-14
C=CCN(c1cccc(C(F)(F)F)c1)S(=O)(=O)c1cccc(C(=O)OCC(=O)NC)c1	0%	14%	-12	x	0.6	12%	-14
CC(=O)[C@@H]1[C@@H]2C(=O)N(c3ccccc3F)C(=O)[C@@H]2[C@H]2c3ccccc3C=NN12	7%	-12%	-4	-2.7%	-8.8	-3%[15.4 µM]	8
C=CCn1c(SCC(=O)NCC2CCCO2)nc2c([nH]c3ccccc32)c1=O (centres undefined)	7%	-11%	9	-5.6%	x	2%	-9
COc1ccc(CC(=O)N2N=C(C)CC2(O)c2cccnc2)cc1 (centres undefined)	11%	12%	1	0.3%	-1.6	-33%[inhibitor]	-7
CNC[C@H]1Oc2c(NC(=O)c3ccc(-c4nccs4)cc3)cccc2C(=O)N([C@@H](C)CO)C[C@@H]1C	-7%	x	x	-1.7%	x	x	-7
CC(Oc1cc2oc(=O)c3c(c2cc1Cl)CCCC3)C(=O)NCC1CCC(C(=O)O)CC1 (centres undefined)	-20%	11%	-5	3.3%	2.4	u	-19
COc1ccc(NC(=O)CCS(=O)(=O)c2ccc3nc(C)sc3c2)cc1OC	8%	19%	29	-1.6%	-2.1	-37%	9
COc1ccc(C#Cc2c(-c3ccccc3)n(-c3ccccc3)c3ccc(CO)cc23)cc1	-3%	x	x	3.8%	x	-2%	29
Cc1c(N(C)S(=O)(=O)c2cc(C(=O)Nc3ccccn3)ccc2Cl)c(=O)n(-c2ccccc2)n1C	-3%	x	20	3.1%	x	-2%	-1
Cc1nonc1OCCn1nnnc1N	6%	12%	7	0.6%	0.8	u	-6
COc1ccc(CCNC(=O)CCc2cc(OC)c(OC)c(OC)c2)cc1OC	5%	6%	2	x	4.3	8%	29
COC(C[C@H]1O[C@H]1C(=O)[C@@H](C)OCc1ccccc1)OC	6%	x	x	0.4%	x	-20%	-11
CCSc1nc2c(c(=O)n1-c1ccc(F)cc1)SCC2	-4%	13%	-24	0.1%	2.5	-3%	4
O=C(COc1ccccc1)Nc1cc(C(F)(F)F)ccc1N1CCCC1	-14%	4%	1	1.5%	2.4	26%	32
Cc1ccc(/C=C2/C(=O)N=C(N)N2C)s1	-15%	25%	21	-1.3%	3.9	-25%	6
CCN(CC)S(=O)(=O)c1ccc(C(=O)Nc2cccc(C)c2)cc1	4%	9%	-9	1.2%	-0.4	24%	36
CC(SCC(=O)O)c1nc2ccccc2[nH]1 (centres undefined)	10%	u	-9	x	2.1	2%[15.4 µM]	13

Entries of single compounds as entered above.
`CC(SCC(=O)O)c1nc2ccccc2[nH]1` (centres undefined) in the list: gsp antagonist = 10%; Sfp inh = u; TRPV1 PAM = -9; ClpP mod = x; Menin-MLL FL inh = 2.1; gsp agonist = 2%[15.4 µM]; TRPML1 blocker = 13
`Cc1nonc1OCCn1nnnc1N` in the list: gsp antagonist = 6%; Sfp inh = 12%; TRPV1 PAM = 7; ClpP mod = 0.6%; Menin-MLL FL inh = 0.8; gsp agonist = u; TRPML1 blocker = -6

(more compounds)
SMILES	gsp antagonist	Sfp inh	TRPV1 PAM	ClpP mod	Menin-MLL FL inh	gsp agonist	TRPML1 blocker
O=C(CCCCCN1C(=O)[C@@H]2Cc3ccccc3CN2C1=O)Nc1cccc(F)c1	u	5%	-8	0.8%	x	-23%	-11
Nc1nc2ccc(Cl)cc2o1	1%	x	x	-1.4%	x	-41%[inhibitor]	-15
CCNc1ncnc2c1cnn2C	7%	13%	-2	x	0.3	1%[15.4 µM]	-9
O=C(COC(=O)Cc1c[nH]c2ccccc12)Nc1cc(S(=O)(=O)N2CCOCC2)ccc1Cl	-30%	x	x	-0.7%	x	4%	2
CCc1ccccc1NC(=O)Cn1nc(C(F)(F)F)cc1C1CC1	-6%	11%	0	-2.4%	-3.6	17%	8
O=C(Nc1cccc(Cl)c1)Nc1sccc1-c1nc2ccccc2s1	-9%	9%	u	x	5.5	22%[15.4 µM]	5
COc1ccc(-c2cc(C(=O)Nc3cc(C)ccc3O)no2)cc1	7%	-5%	1	0.0%	2.3	u	10
COc1cccc(-n2cnc3cccc(N)c32)c1	-11%	-5%	4	-1.0%	-0.1	1%	3
O=C(c1ccc2snnc2c1)N1CCOCC1	9%	14%	8	-1.0%	1.4	-39%	-8
COc1ccc(NC(=O)CSC2CC(=O)N(c3ccc4c(c3)OCCO4)C2=O)cc1 (centres undefined)	5%	-7%	-19	1.2%	-9.3	4%	27
Cc1ccc(S(=O)(=O)Nc2nc(C)c(C(=O)Nc3ccccc3)s2)cc1	-13%	26%	10	-0.7%	0.8	0%	4
O=C(O)c1cccc(S(=O)(=O)Nc2ccccc2-c2ccccc2)c1	5%	18%	6	-0.5%	-3.5	-14%	31
N#CC1=C(N)N(c2ccccc2)C2=C(C(=O)CCC2)C1c1ccccc1 (centres undefined)	-13%	-9%	1	-0.5%	-2.1	3%	2
COc1cc(OC)cc(-c2nc(SCC(=O)Nc3ccccc3F)n[nH]2)c1	u	15%	-3	-1.1%	x	1%	-20
COc1ccc(CCNC(=S)Nc2cccc3ccccc23)cc1	-8%	-3%	6	2.6%	5.0	0%	-13
CCCCCC1CC(COc2ccccc2)OC1=O (centres undefined)	-5%	11%	-9	x	5.2	u	12
COc1cc2c(cc1OC)C(c1ccccc1)N(C(=O)CSCC(=O)O)CC2 (centres undefined)	-5%	1%	-1	0.9%	1.1	13%	18
O=S(=O)(c1ccc2oc(=S)[nH]c2c1)N1CCCCC1	-8%	9%	x	-2.5%	0.0	0%	-2
CCOC(=O)C1CCN(C(=O)CCC(=O)NNc2nc3ccccc3c3nc(C)nn23)CC1	1%	13%	18	0.1%	x	-16%	-4
O=C(NNC(=O)c1ccc2ncccc2c1)c1ccc(Cl)cc1	10%	13%	20	1.2%	-1.8	-10%[15.4 µM]	12
CC(C)C[C@H](NC(=O)c1nc[nH]c1C(=O)N1CCNCC1)C(=O)OCc1ccccc1	3%	x	u	-3.1%	x	x	2
C=CCN(c1ccc(C(=O)Nc2ccc3c(c2)OCO3)cc1)S(C)(=O)=O	4%	7%	-17	x	-0.4	7%[15.4 µM]	-4
O=C(CSc1nnnn1-c1cccc2ccccc12)Nc1ccc(N2CCOCC2)c(Cl)c1	-2%	13%	1	-6.2%	-0.3	6%	-3
CCOc1ccc(CCNC(=O)COC(=O)C2CCN(S(=O)(=O)c3ccc(C)c(C)c3)CC2)cc1OCC	-13%	2%	-15	-0.6%	2.5	-7%	8
Cc1nn(C)c(C)c1NC(=O)/C(C#N)=C\N(C)C	18%	3%	-1	0.2%	9.0	1%[15.4 µM]	-22
O=C(CN1CCOCC1)Nc1nc2ccc(Br)cc2s1	3%	-4%	-1	5.4%	3.9	4%	18
Cc1ccc(C(=O)O/N=C(\c2ccccc2)c2ccncc2)cc1	7%	-4%	-15	x	-0.2	16%[15.4 µM]	-4
Cc1csc(SCC(=O)N(C)c2c(N)n(Cc3ccccc3)c(=O)[nH]c2=O)n1	8%	19%	6	-3.5%	0.7	7%	0
O=C(NCc1ccc(F)cc1)c1noc2c1CCCCC2	3%	12%	-6	1.5%	-2.0	6%	-8
COC(=O)c1scc(C)c1NC(=O)CSc1ccc(Cl)cc1	4%	0%	7	-0.2%	2.9	0%[15.4 µM]	-7
CSc1nc(-c2ccccc2)c(C#N)c(=O)n1C	-11%	20%	-6	x	2.5	7%	-16
COC(=O)c1c(NC(=O)c2ccccc2)sc(C(=O)c2ccccc2)c1C	2%	-1%	10	-2.5%	u	u	12
CC(=O)Nc1scc(-c2ccccc2)[n+]1-c1ccc(C)cc1	50µM*	-24%	-14	x	-0.9	41%	-8
Cc1cc(C)cc(N(CC(=O)NC2CCCC2)C(=O)CNC(=O)c2ccco2)c1	x	5%	u	x	-3.6	8%[15.4 µM]	-9
CC(=O)C1=C(C)Nc2ncnn2C1c1ccccc1F (centres undefined)	8%	9%	-3	x	1.2	u	0
CC(C)=C(NC(=O)c1ccco1)C(=O)NCCc1nc2ccccc2[nH]1	11%	8%	5	-0.5%	4.9	-25%	-11
